Screens as filed in PubChem.
HPGD inh: inhibitors of human 15-hydroxyprostaglandin dehydrogenase (HPGD). P15428. purified HPGD, NADH fluorescence kinetic, PGE2 substrate. Potency, µM, for the others: at the top dose activity change, negative = inhibition, hits mostly inhibitors. 4.3% of 150,000 active; active = well fitted inhibition curve with a large enough effect (not every such curve was filed as active); inconclusive = small, poorly fitted or top-dose-only effect, or another doubt; inactive = no such curve, though single readings can be large or run the other way;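 note: top concentration of the series not given in the record; plate controls included wells without enzyme; inactives centre near -10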
Target sequence (P15428 whole entry, looked up): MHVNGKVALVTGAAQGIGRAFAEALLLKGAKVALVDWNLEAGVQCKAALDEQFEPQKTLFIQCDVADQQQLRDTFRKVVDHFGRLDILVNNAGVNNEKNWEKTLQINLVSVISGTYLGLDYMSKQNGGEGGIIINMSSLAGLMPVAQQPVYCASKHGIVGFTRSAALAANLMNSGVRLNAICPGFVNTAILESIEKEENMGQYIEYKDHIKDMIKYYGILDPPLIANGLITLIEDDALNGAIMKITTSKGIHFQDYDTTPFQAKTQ
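20 nM HPGD preincubated 15 min at room temperature with compound in 50 mM Tris-HCl pH 8, 0.01% Tween 20. Started with 1 mM NAD+ and 30 uM prostaglandin E2; NADH fluorescence (360/450 nm) read 5 times over 30-s intervals, last minus first.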
The depositor's hits bear a star; u = inconclusive. % is set by controls: 0 for no effect and ±100 for the full control effect; potency is the fitted concentration of half-maximal effect. A portion of the library; count on the stated rates, not on these rows.

HPGD inh	molecule
-4%	CC(=O)C1C(c2cccc(F)c2)NC(=O)NC1(O)C(F)(F)F (stereo unspecified)
-4%	CC(=O)Nc1ccc(S(=O)(=O)N2CCN(C(=O)c3ccccc3F)CC2)cc1
1%	Cc1c(NC(=O)c2cccc(NC(=O)c3ccco3)c2)cccc1C(=O)O
-14%	CCN(CC)C(=O)C1CC(=O)N(c2ccc(OC)cc2)C1c1ccc(OC)cc1 (stereo unspecified)
-5%	O=C1c2ccccc2-n2c1nc1ccccc1c2=O
-8%	COc1cc2c(cc1OC)C(C1C(=O)CC(C)CC1=O)N(C(=O)CCl)CC2 (stereo unspecified)
0%	CCOC(=O)N1CCC(NC(=O)c2cccc3c2C(=O)N(CCOC)C3)CC1
-12%	Cn1nnc2cc(C(=O)Nc3cccnc3)ccc21
-16%	CCOC(=O)C1=C(N)OC2=C(C(=O)CC(C)(C)C2)C1c1ccco1 (stereo unspecified)
-2%	CC(=O)Nc1ccc(S(=O)(=O)N2CCN(Cc3ccccn3)CC2)cc1
-10%	C/C(=N\O)C1(C)N(O)C(C)(C)C(c2ccco2)=[N+]1[O-] (stereo unspecified)
-12%	Cc1cc(C)nc(Sc2ccc3nnnn3n2)n1
1%	O=C(CSc1nnc(Cc2cc(=O)[nH]c(=O)[nH]2)n1-c1ccc(Cl)cc1)NCC1CCCO1 (stereo unspecified)
u	O=c1nc(NCc2ccco2)sc2ncccc12
-13%	CN(C)C(=O)c1ccc(-c2cncnc2NCCN2CCOCC2)cc1
-5%	Nc1nnc(SCC(=O)Nc2ccccc2N2CCOCC2)s1
-15%	CSc1ccc(Cl)c(C(=O)NCC(C)C)c1
-6%	COc1ccc(C2(O)CCN(C(=O)c3ccc4c(c3)OCO4)CC2)cc1
11%	CCOC(=O)Cn1c(-c2cccnc2Cl)nc2cc(C)c(C)cc21
-9%	CCN1C(=O)c2ccc(C(=O)NCc3ccc4c(c3)OCO4)cc2C1=O
-15%	CCOC(=O)/C(C#N)=C\c1ccc(N2CCN(C/C=C/c3ccccc3)CC2)cc1
-10%	CC(C)OC(=O)CSc1nnc(-c2cccnc2)n1Cc1ccccc1
-7%	Cc1n[nH]c(C)c1S(=O)(=O)N(CC(=O)N1CCc2ccccc21)c1ccc(C(C)C)cc1
-14%	COc1cccc(-c2nnc(SCC(N)=O)n2-c2ccc(Cl)cc2)c1
-10%	Nc1nc2n(n1)C(c1cccs1)CC(c1ccccc1)N2 (stereo unspecified)
0%	CCC(=O)N1c2ccccc2NC2=C(C(=O)CCC2)C1c1ccccc1 (stereo unspecified)
u	COc1ccc(-n2cnc3cc(NCc4cccs4)ccc32)cc1
-1%	CNC(=O)NC(=O)CSc1cccc(C(F)(F)F)c1
1%	COc1ccc(OC2C(=O)N(c3ccc(C)c(C)c3)C2c2ccc(OC)c(OC)c2)cc1 (stereo unspecified)
-17%	O=C(c1cc(F)c(F)cc1Cl)N1CCOCC1
u	c1ccc(N2N=C(c3cccs3)CC2c2ccco2)cc1 (stereo unspecified)
-9%	COc1ccc(Cc2nnnn2CC(=O)O)cc1
-2%	Cc1nc(NC(=O)C2CC2)sc1C
-11%	C/C=C/c1ccc(OCCOCCOc2cccc3cccnc23)c(OC)c1
-10%	Cc1nnc(SCC(=O)NCc2ccco2)n1Cc1ccccc1
-5%	O=C(Cn1nnc(-c2ccc3c(c2)OCO3)n1)NCc1ccco1
-1%	O=C(N/N=C/c1ccc(Cl)c([N+](=O)[O-])c1)c1cnccn1
-13%	Cc1noc(NS(=O)(=O)c2ccc(N/C=C/C(=O)c3cccnc3)cc2)c1C
-12%	CCOC(=O)c1c(NC(=O)CSc2nc(C)cc(C)c2C#N)sc(C(C)=O)c1C
u	O=C1NC(c2ccco2)Nc2ccccc21 (stereo unspecified)
u	Cc1ccc(-c2cc(C(F)(F)F)n3ncc(C(=O)N4CCN(C)CC4)c3n2)cc1
-11%	CCOC(=O)CCCn1ncn2c(cc3occc32)c1=O
-26%	COCCNC(=S)Nc1ccc2nc(N3CCCC3)cc(C)c2c1
-29%	COc1ccc(-c2cc(C(F)(F)F)nc(NCc3cccnc3)n2)cc1
-8%	Cc1[nH]nc2c1C(C(C)C)C(C#N)=C(N)O2 (stereo unspecified)
0%	CCN(CC)CCN1C(=O)C(O)=C(C(C)=O)C1c1ccccc1 (stereo unspecified)
-5%	CC1=C(C(=O)N(C)C)C(c2cccs2)NC(=O)N1 (stereo unspecified)
-6%	CCNS(=O)(=O)c1ccc(C)c(-n2cnnn2)c1C
u	COc1ccc(C2(O)CC3CCC(C2)N3c2nc(C)cc(C)c2C#N)cc1 (stereo unspecified)
-9%	O=C(Nc1ccccc1)N1N=C(c2ccc(F)cc2)CC1c1ccc(F)cc1 (stereo unspecified)
-20%	CCCn1c(SCC(=O)c2ccc3c(c2)NC(=O)CO3)nc2ccccc21
-8%	O=C(NCCc1ccccc1)C1CCC(Cn2c(=O)c3ccccc3n(Cc3cccc(F)c3)c2=O)CC1 (stereo unspecified)
u	O=C(Nc1ccc(Cc2ccncc2)cc1)c1ccc(Cl)c([N+](=O)[O-])c1
-4%	CCCn1c(C)nc2c(NC(C)CN(C)C)nc(C)nc21 (stereo unspecified)
-14%	CCC1CCCCN1C/C=C/c1ccccc1[N+](=O)[O-] (stereo unspecified)
-2%	COc1cccc(N(C(=O)c2ccn[nH]2)C2(C(=O)Nc3c(C)cccc3C)CCCCC2)c1
-26%	COc1ccc(CNC(=O)CCSCc2cccc(Cl)c2)cc1
-25%	Cc1cc2ncn(/N=C/c3cc(Br)ccc3O)c2cc1C
-8%	COc1ccc(-c2nnc(SCC(=O)NC3CCCc4ccccc43)n2N)cc1 (stereo unspecified)
-11%	CC(NC(=O)Cc1ccc(F)cc1)c1ccccc1 (stereo unspecified)

Next section.
HPGD inh	molecule
-12%	O=C(CCN1Cc2ccccc2C1)c1ccc2c(c1)OCCO2
-7%	Cc1ccc(C)c(N2CCN(C(=O)c3cn(C)c4ccc(S(=O)(=O)N(C)C)cc4c3=O)CC2)c1
u	N#Cc1c(N)nc(SCC(=O)NCc2ccc3c(c2)OCO3)c(C#N)c1-c1cccs1
-24%	O=C(Cc1ccc(Br)cc1)NC1CCCCC1
-17%	C=CCn1c(N)c(C(=O)OCC)sc1=S
-19%	O=C(Cn1c2ccccc2c(=O)c2ccccc21)N/N=C/c1cc([N+](=O)[O-])ccc1N1CCCCC1
2%	O=C(CCn1nc(-c2ccc(Cl)cc2)ccc1=O)N1CCN(c2ccccn2)CC1
-14%	Cc1ccc(Oc2ncccc2/C=N/OCc2ccc(Cl)c(Cl)c2)cc1
-7%	O=C(O)c1cn(-c2ccccc2)nc1-c1cccnc1
-26%	Cc1ccc(Oc2cc(C)nc(-c3ccccc3O)n2)cc1
-12%	CCC(Oc1ccc(C)c(C)c1)C(=O)O (stereo unspecified)
-15%	COc1cccc(/C=C/C(=O)OCC(=O)NCc2ccco2)c1OC
-5%	CC1=C(C(=O)Nc2ccc(C)cc2)C(c2ccc(C)o2)C2=C(CC(C)(C)CC2=O)N1 (stereo unspecified)
-8%	COc1ccc(S(=O)(=O)N2c3cc(Cl)ccc3Oc3nc4ccccc4nc32)cc1
4%	CCc1ccc(CNCCNCC(C)O)cc1 (stereo unspecified)
-8%	Cc1ccc(C(=O)N(c2ccccc2)C2CC(C)N(C(=O)c3ccco3)c3ccccc32)cc1 (stereo unspecified)
0%	Cc1ccc(NC(=O)Cn2cnc3c(=O)n(C)c(=O)n(C)c32)c(C)c1
-12%	Clc1ccccc1CN(Cc1ccco1)Cc1nnnn1C1CCCC1
u	O=c1[nH]c2cc3c(cc2cc1CN(Cc1cccs1)Cc1nnnn1Cc1ccco1)OCCO3
-10%	O=C(O)CCc1nn2c3ccccc3nc2n(-c2ccccc2)c1=O
-23%	O=S(=O)(/C=C/c1ccccc1)c1ccccc1
-8%	O=C(O)C1C2C=CC(C2)C1C(=O)NCCCn1ccnc1 (stereo unspecified)
-11%	CCN(CC)CCNC(=O)Cc1c(C(=O)O)n(CC)c2ccccc12
-14%	O=C(CNC(=O)c1ccc(N2C(=O)c3ccccc3C2=O)cc1)OCC(=O)c1ccc(Cl)cc1
-20%	Cc1cccc2c1N(CCOc1ccc(C(C)(C)C)cc1)C(=O)C2=O
-11%	COc1ccccc1Nc1ccc([N+](=O)[O-])cc1N
-9%	CCOC(=O)C(C)/C(C)=N/NC(=O)c1cc2ccccc2cc1O (stereo unspecified)
u	Cc1c(Br)c(-c2n[nH]c(=S)n2Cc2ccco2)nn1C
-10%	Cc1ccccc1NC(=O)CCSc1nnnn1-c1ccccc1
-3%	CCOC(=O)c1cnc(-n2nc(C)cc2C)nc1Nc1ccccc1OC

Exported with bars between the fields: entries from further up.
structure | HPGD inh
O=S(=O)(/C=C/c1ccccc1)c1ccccc1 | -23%
O=C(O)C1C2C=CC(C2)C1C(=O)NCCCn1ccnc1 (stereo unspecified) | -8%

(continued)
HPGD inh	molecule
16µM*	Cc1nn(C)cc1CNC(=O)Nc1ccc(Cl)c(Cl)c1
-1%	Nc1ccc(N2CCCCC2)cc1N1CCCCC1
-18%	COCC(=O)N1CCC2(CC1)CN(Cc1nccs1)C2
-2%	O=C(O)c1ccccc1OCCOc1ccccc1
-2%	Cc1cc(C(=O)Nc2ccc3c(c2)OCCO3)c(C)o1
-1%	Brc1ccccc1Cn1c(-c2cncs2)nc2ccccc21
0%	O=C(CCC(=O)N1CCCc2ccccc21)N1CCN(S(=O)(=O)c2ccccc2)CC1
u	Cc1ccc(-c2nc3ccccc3o2)cc1NC(=O)c1ccc2c(c1)OCO2
-6%	Cc1c(C(=O)OCCOC(C)C)[nH]c2c1C(=O)CC(C)(C)C2
0%	COc1ccccc1NC(=O)CN1CCN(c2ccc(Cl)cc2)CC1
-7%	CCNc1nc(NC(C)C)nc(N(n2cnnc2)S(=O)(=O)c2ccc(C)cc2)n1
-12%	Cn1c(=O)c2c(ncn2CC(=O)N2CCN(c3ccccc3F)CC2)n(C)c1=O
-30%	COc1ccc(C(=O)c2c(C(F)(F)F)oc3c2C(=O)c2ccccc2C3=O)cc1OC
-24%	CCOc1ccc2nc(SCC(=O)Nc3cc4c(cc3C(C)=O)OCO4)[nH]c2c1
-5%	CCOC(=O)c1ccc(N/C(=N/S(=O)(=O)c2ccccc2)c2ccccc2)cc1

Grouped by structure, the entries above containing an aryl thioether with sulfur outside any ring (14)
HPGD inh	molecule
-12%	Cc1cc(C)nc(Sc2ccc3nnnn3n2)n1
1%	O=C(CSc1nnc(Cc2cc(=O)[nH]c(=O)[nH]2)n1-c1ccc(Cl)cc1)NCC1CCCO1 (stereo unspecified)
-5%	Nc1nnc(SCC(=O)Nc2ccccc2N2CCOCC2)s1
-15%	CSc1ccc(Cl)c(C(=O)NCC(C)C)c1
-10%	CC(C)OC(=O)CSc1nnc(-c2cccnc2)n1Cc1ccccc1
-14%	COc1cccc(-c2nnc(SCC(N)=O)n2-c2ccc(Cl)cc2)c1
-1%	CNC(=O)NC(=O)CSc1cccc(C(F)(F)F)c1
-10%	Cc1nnc(SCC(=O)NCc2ccco2)n1Cc1ccccc1
-12%	CCOC(=O)c1c(NC(=O)CSc2nc(C)cc(C)c2C#N)sc(C(C)=O)c1C
-20%	CCCn1c(SCC(=O)c2ccc3c(c2)NC(=O)CO3)nc2ccccc21
-8%	COc1ccc(-c2nnc(SCC(=O)NC3CCCc4ccccc43)n2N)cc1 (stereo unspecified)
u	N#Cc1c(N)nc(SCC(=O)NCc2ccc3c(c2)OCO3)c(C#N)c1-c1cccs1
-10%	Cc1ccccc1NC(=O)CCSc1nnnn1-c1ccccc1
-24%	CCOc1ccc2nc(SCC(=O)Nc3cc4c(cc3C(C)=O)OCO4)[nH]c2c1

More records:
HPGD inh	molecule
-17%	O=C(CCC1CCCC1)NCc1ccccn1
-4%	OC[C@@H](O)[C@@H](O)CCc1ccccc1
u	COCCn1c(-c2ccc(OC(F)(F)C(F)C(F)(F)F)cc2)nc2c1c(=O)[nH]c(=O)n2CC(C)C (stereo unspecified)
1%	Cc1nn(CC(=O)NCCc2ccccc2)c(C)c1[N+](=O)[O-]
-6%	COc1ccccc1CN1C(=O)C2CC=CCC2C1=O (stereo unspecified)
-9%	Cc1ccc(S(=O)(=O)NCCC(=O)Nc2nnc(C3CC3)s2)cc1C
u	CC(OC(=O)/C=C/c1ccco1)C(=O)Nc1cccc([N+](=O)[O-])c1 (stereo unspecified)
20µM*	Cc1cc(C(=O)OCC(=O)c2ccc3c(c2)OCCO3)c(C)o1
-19%	COc1ccc2c(CC(=O)OCC(=O)Nc3sc4c(c3C#N)CCC(C)C4)coc2c1 (stereo unspecified)
-13%	O=C(O)c1nc(-c2ccccc2)[nH]c1C(=O)O
-3%	COc1ccc(NC(=O)c2ccc(S(=O)(=O)N(C)C)cc2)cc1OC
-16%	CCCNC(=O)COC(=O)c1ccc(Cl)c(S(=O)(=O)N2CCCC2)c1
-11%	Cc1cccc(NC(NC(=O)c2ccccn2)C(Cl)(Cl)Cl)c1 (stereo unspecified)
-1%	Cc1ccc(S(=O)(=O)NC(=O)COc2ccccc2C)cc1
u	COc1ccc(/C=N/NC(=O)c2nc(-c3ccccc3)cc(-c3ccccc3)n2)cc1
-1%	CCOC(=O)c1c(C(=O)OCC)c(C)n(Cc2cc(OC)c(OC)c(OC)c2)c1C
u	CC[N+](C)(C)CCN(Cc1ccc(Cl)cc1)c1ccccn1
-13%	COc1cc2[nH]c3c(Cl)ncnc3c2cc1OC
-8%	C=C(C)CN1CCN(c2c(CCC#N)c(C)c(C#N)c3nc4ccccc4n23)CC1
1%	CN(C)c1ccc(N2C(=O)CC(Nc3ccc(N4CCOCC4)cc3)C2=O)cc1 (stereo unspecified)

2 entries from above, reformatted.
mol	HPGD inh
CN(C)c1ccc(N2C(=O)CC(Nc3ccc(N4CCOCC4)cc3)C2=O)cc1 (stereo unspecified)	1%
CC[N+](C)(C)CCN(Cc1ccc(Cl)cc1)c1ccccn1	u
